Source: PubChem BioAssay
VDR inh – blocks the human vitamin D receptor; P11473; VDR-SRC2-3 peptide fluorescence polarization, 2 h; Potency, µM, without a hit: max response, negative = inhibition, actives largely listed as inhibitors; actives 0.93% (n = 400,000); active means well fitted inhibition curve with a large enough effect; inconclusive means small, poorly fitted or top-dose-only effect, or another doubt; inactive means no such curve, though single readings can be large or run the other way; further: series mostly up to about 120 µM
Target sequence (P11473 whole entry, looked up): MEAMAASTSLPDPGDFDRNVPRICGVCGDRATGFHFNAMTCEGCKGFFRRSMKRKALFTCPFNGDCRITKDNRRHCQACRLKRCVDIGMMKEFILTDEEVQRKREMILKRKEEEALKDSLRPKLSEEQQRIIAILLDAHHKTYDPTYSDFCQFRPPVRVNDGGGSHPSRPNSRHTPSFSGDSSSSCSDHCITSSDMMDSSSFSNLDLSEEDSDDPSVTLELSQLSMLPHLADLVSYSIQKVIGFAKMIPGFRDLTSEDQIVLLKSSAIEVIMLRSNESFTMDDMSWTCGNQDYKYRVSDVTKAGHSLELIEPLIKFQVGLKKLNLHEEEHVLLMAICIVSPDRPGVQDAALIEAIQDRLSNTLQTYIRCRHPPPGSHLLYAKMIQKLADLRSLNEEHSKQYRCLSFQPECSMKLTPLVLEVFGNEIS
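Signal is fluorescence polarization, reporting how far test compounds block the interaction of VDR with the SRC2-3 coregulator peptide after a 2 h room-temperature incubation.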
* hit, by the source's call; ? = inconclusive; & = joins results of further samples. On the % scale 0 is the no-effect control and ±100 the full control effect; potency means the concentration at half of the fitted maximal effect. This is a subset; rates above refer to the full screens.

COC(=O)C(CC(C)C)NS(=O)(=O)c1cc(Br)ccc1Br (stereo not given)
- VDR inh = -12%
Cc1ccc(N2C(=O)CS(=O)(=O)C23C(=O)N(Cc2cccc(F)c2)c2ccccc23)cc1Cl (stereo not given)
- VDR inh = -1%
CCO[C@@H]1OC(C(=O)NC2CC2)=C[C@H](c2coc3ccccc3c2=O)[C@H]1CCCO
- VDR inh = -7%
Cc1ccc(C)c(NC2CCCCC2NS(=O)(=O)c2ccccc2)c1 (stereo not given)
- VDR inh = 20%
COc1ccc(C2/C=C\CC(OCc3ccccc3)CC(=O)N2Cc2cccc(F)c2)cc1 (stereo not given)
- VDR inh = -31%&-19%
CCCN(c1ccc(OCC)cc1)S(=O)(=O)c1ccc2c(c1)NC(=O)CO2
- VDR inh = -1%
C/C(=N\N=C1\NC(=O)C(CC(=O)O)S1)c1ccccn1 (stereo not given)
- VDR inh = 16%
O=C(CSc1nc2ccccc2n1Cc1ccc(F)c(Cl)c1)N1CCN(c2ccc(F)cc2)CC1
- VDR inh = 3%
CCCC(=O)c1c(NCCO)cc(C)oc1=O
- VDR inh = 18%
Cc1ccccc1NC(=O)CC1NCCNC1=O (stereo not given)
- VDR inh = 17%
O=C(/C=C/c1cccc(OCc2ccccc2)c1)c1cccnc1
- VDR inh = 40µM*
O=S(=O)(c1cccc(-c2nnc(SC(F)F)n2-c2ccccc2)c1)N1CCCCC1
- VDR inh = -19%
CC(C)CCOc1ccc(/C=N/N2C(=O)CSC2=S)cc1
- VDR inh = 16%
C[C@H](CO)N1C[C@H](C)[C@@H](CN(C)S(=O)(=O)c2ccc(F)cc2)Oc2ccc(NS(=O)(=O)c3cccs3)cc2C1=O
- VDR inh = 8%
COc1cccc(CNC(=O)CSc2cc(C)[nH]c(=O)n2)c1
- VDR inh = 13%

Cc1ccc(S(=O)(=O)N2CCN(C(=O)c3ccc4ccccc4n3)CC2)c(C)c1
- VDR inh = -6%
CN(Cc1c(F)cccc1Cl)C(=O)CCc1c[nH]c2ccccc12
- VDR inh = 7%
Cc1nc(CC(=O)c2c(C)cc(O)cc2O)cs1
- VDR inh = -12%
COCCN(C(=O)COC(=O)c1cccnc1SC)c1c(N)n(Cc2ccccc2)c(=O)[nH]c1=O
- VDR inh = -14%
CC1N=C2c3ccccc3N=C(SCc3cc(=O)n4cc(Cl)ccc4n3)N2C1=O (stereo not given)
- VDR inh = -4%
COc1ccccc1OCCn1c(-c2ccc(Br)cc2)nc2ccccc2c1=O
- VDR inh = -6%
CCCOc1ccc(C2C(=O)N(C3CCCCC3)CC(=O)N2CCCOCC)cc1OC (stereo not given)
- VDR inh = 3%
Brc1ccc(CNCCCSc2nnnn2-c2ccccc2)cc1
- VDR inh = 6%
CC1CCN(c2ccccc2NC(=O)c2cc3ccccc3o2)CC1
- VDR inh = 1%
Cc1ccc(C(C)C)c(OCCn2ccnc2C)c1
- VDR inh = 9%
CCN(CC)CCN(Cc1cc2cc(C)cc(C)c2[nH]c1=O)C(=S)NCc1ccco1
- VDR inh = 1%
O=C(NCc1ccc(Cl)cc1)[C@@H]1CCCN1S(=O)(=O)c1ccc(Cl)cc1
- VDR inh = -5%
CC(=O)NC(Cc1ccc(F)cc1)C(=O)NC1CCN(C(=O)Nc2ccccc2C)CC1 (stereo not given)
- VDR inh = 5%
O=C(C1CCCO1)N1CCN(C(=S)Nc2ccc(Br)cc2)CC1 (stereo not given)
- VDR inh = -16%
S=C1NCN(Cc2ccco2)CN1c1cccc2ccccc12
- VDR inh = -18%

COc1cccc(CN2C(=O)N(C(C)C)C(N(O)C(=O)NC(C)C)C2(C)C)c1OC (stereo not given)
- VDR inh = -5%
Cc1ccc(S(=O)(=O)N(C(=O)c2ccncc2)c2ccc(OC(=O)c3ccncc3)c3ccccc23)c(C)c1
- VDR inh = -9%
CCCc1cc(=O)[nH]c(SCc2cccnc2)n1
- VDR inh = 3%
O=C(O)c1ccccc1NS(=O)(=O)c1cccc2nsnc12
- VDR inh = -1%
COCCNC(=O)C1CC2Cn3c(nc4cc(C)c(C)cc43)C2N1C (stereo not given)
- VDR inh = 8%
Cn1c(=O)cc(SCC(=O)N2CCCC2)c2ccccc21
- VDR inh = -8%
Cc1ccc(N(CC(=O)NCCSc2ccccn2)S(=O)(=O)c2ccc(F)cc2)cc1
- VDR inh = 3%
COc1cc(/C=N/NC(=O)c2ccc(N3CCCC3=O)cc2)ccc1O
- VDR inh = 10%
CCN(Cc1ccccc1)C(c1ccc(C)cc1)c1nnnn1C(C)(C)C (stereo not given)
- VDR inh = 7%
CN(C(=O)C1CCC1C(=O)O)c1nc(-c2ccc(Cl)s2)cs1 (stereo not given)
- VDR inh = 3%
Cc1cc(NCCCCO)n2c(nc3ccccc32)c1C#N
- VDR inh = 21%
COc1ccccc1NC(=O)C(C)OC(=O)c1cc2ccccc2[nH]1 (stereo not given)
- VDR inh = -13%
CC(C)(CC(=O)O)CC(=O)Nc1ccc2c(c1)ncn2CCc1ccccc1
- VDR inh = 8%
CCn1c(SCC(=O)Nc2oc(-c3ccccc3)c(-c3ccccc3)c2C#N)nnc1-c1ccncc1
- VDR inh = 6%
CCn1c(=O)c(C(=O)CN(C)CC(=O)Nc2ccccc2Br)c(N)n(Cc2ccccc2)c1=O
- VDR inh = -13%

NC(=S)N/N=C/c1cccc(/C=N/NC(N)=S)c1
- VDR inh = 3%
COC(=O)c1ccc2c(c1)c(C#Cc1ccccc1)c(-c1ccccc1)n2C
- VDR inh = -11%&8%
CCN1C(=O)[C@@H]2[C@@H](c3ccc(SC4CCCCC4)c(OC)c3)N3CCCC[C@@]3(C(=O)OC)[C@@H]2C1=O
- VDR inh = 19%
O=C(Cc1n[nH]c(=O)[nH]c1=O)N/N=C/c1ccccc1O
- VDR inh = -4%
O=C(NCc1ccccc1)c1cccc(Nc2nc3ccccc3n3nnnc23)c1
- VDR inh = 11%
O=C(O)c1cccc(N/C(=N\S(=O)(=O)c2ccccc2)c2ccccc2)c1
- VDR inh = -5%
COc1cc(OC)nc(Oc2cc(C=O)ccc2OC)n1
- VDR inh = -15%
CCc1ccc(NC(=O)C(CC)n2c(=O)c(-c3ccccc3NC(C)=O)nc3ccccc32)cc1 (stereo not given)
- VDR inh = 3%
O=C(N/N=C/C(Br)=C/c1ccccc1)c1n[nH]c2c1CCC2
- VDR inh = ?
CC(=O)Nc1ccc(CN2CCN(C3CCCCC3)C(CCO)C2)cc1 (stereo not given)
- VDR inh = -16%
O=C(Cc1c(Cl)cccc1Cl)NC1CC1
- VDR inh = -24%
O=C(Nn1cnnc1)c1cc(-c2ccccn2)nc2ccccc12
- VDR inh = 11%
COc1ccccc1COCC(O)CNCCc1ccc(C(F)(F)F)cc1 (stereo not given)
- VDR inh = 24%
O=C(CSc1nncn1-c1ccccc1)Nc1cc(Cl)cc(Cl)c1
- VDR inh = -3%
Cc1ccc(S(=O)(=O)Nc2cc(Cl)c3oc4c(c3c2)CCCC4)cc1
- VDR inh = -4%

At a glance, part of the list above:
O=C(CSc1nncn1-c1ccccc1)Nc1cc(Cl)cc(Cl)c1
- VDR inh = -3%
Cc1ccc(S(=O)(=O)Nc2cc(Cl)c3oc4c(c3c2)CCCC4)cc1
- VDR inh = -4%

The main list resumes; the three compounds before the break are reprinted first.
COc1ccccc1COCC(O)CNCCc1ccc(C(F)(F)F)cc1 (stereo not given)
- VDR inh = 24%
O=C(CSc1nncn1-c1ccccc1)Nc1cc(Cl)cc(Cl)c1
- VDR inh = -3%
Cc1ccc(S(=O)(=O)Nc2cc(Cl)c3oc4c(c3c2)CCCC4)cc1
- VDR inh = -4%
COCCN(C(=O)COC(=O)/C=C/c1ccc(Cl)c(Cl)c1)c1c(N)n(Cc2ccccc2)c(=O)[nH]c1=O
- VDR inh = -9%
CC(C)(CO)NC(=O)c1ccc2nc(Cc3cccc(Cl)c3)oc2c1
- VDR inh = -11%
CN(Cc1ccco1)C(=O)CN1C(=O)NC2(CCCCC2)C1=O
- VDR inh = 0%
COCCNC(=O)CSc1nc(-c2ccc(C)cc2)nc2c1c(=O)n(C)c(=O)n2C
- VDR inh = 2%
CSc1ccc(Cl)c(C(=O)OCC(=O)NCC(C)C)c1
- VDR inh = -16%
Cc1cccc(N2CCN(C(=O)c3cccc(N4C(=O)C5C6C=CC(C6)C5C4=O)c3)CC2C)c1 (stereo not given)
- VDR inh = 7%
CCN(c1ccccc1)S(=O)(=O)c1ccc2[nH]cc(C(=O)N3CCOCC3)c(=O)c2c1
- VDR inh = 17%
O=C(Cn1nc(-c2ccccc2)ccc1=O)NCc1ccc(F)cc1Cl
- VDR inh = 9%
COc1ccc(-n2c(=O)c3ccc(C(=O)NCc4ccc(C)cc4)cc3n(Cc3ccc(F)cc3Cl)c2=O)cc1
- VDR inh = 8%
CCOC(=O)c1cccc(NC(=O)c2cnc(N3CCCCC3)c3ccccc23)c1
- VDR inh = 4%
O=S(=O)(c1cccs1)N1CCN(c2cccc(Cl)c2)CC1
- VDR inh = 7%
O=C(NCCCl)c1ccc(OCc2ccccc2)cc1Cl
- VDR inh = -12%
CC(C)(C)c1cc(C(=O)Nc2cccnc2)cc(C(=O)Nc2cccnc2)c1
- VDR inh = ?
CCOC(=O)C1C(=O)NC(N2CCN(Cc3ccccc3)CC2)=NC1c1ccco1 (stereo not given)
- VDR inh = -3%
CC(C)C[C@@H](CN1CCCC1CN1C(=S)NC[C@@H]1Cc1ccc(O)cc1)N1C[C@H](Cc2ccc(O)cc2)N(CC2CCCCCC2)C1=S (stereo not given in full)
- VDR inh = -2%

O=C(NCCOc1ccccc1)C1CCC(=O)N(CCCN2CCOCC2)C1 (stereo not given)
- VDR inh = -1%
O=C(Nc1nc2ccc(S(=O)(=O)N3CCCC3)cc2s1)c1cccs1
- VDR inh = -4%
O=C(CCC(=O)OCCCC(F)(F)C(F)(F)F)NC1CCCCC1
- VDR inh = 11%
O=C(CSc1nnc(C2CC2)n1-c1ccccc1)NCCN1C(=O)CSC1=O
- VDR inh = -6%
Cc1ccc(S(=O)(=O)N2CCN(C(=O)c3ccccc3)CC2)c(C)c1NS(C)(=O)=O
- VDR inh = 8%
Cc1noc(C)c1C(=O)Nc1ccc(-n2ccc(C(F)(F)F)n2)cc1
- VDR inh = -16%
CCc1ccc(NC(=O)CCc2nc3ccccc3[nH]2)cc1
- VDR inh = -2%
Cn1ncc([N+](=O)[O-])c1C(=O)N/N=C/c1c[nH]c2ccccc12
- VDR inh = 2%
NC(=S)NN=C1CCCCCCCCC1
- VDR inh = -26%
CCOc1ccc(-n2c(=O)c3c4c(sc3n(CC(=O)NCCCOC)c2=O)CCCCC4)cc1
- VDR inh = 7%&8%
COC(=O)c1cc2sc(C)cc2n1CC(=O)Nc1cccc(SC)c1
- VDR inh = 3%
Cc1cc(C)n2nc(CNS(=O)(=O)c3ccc(C)c(C)c3)nc2n1
- VDR inh = 5%&10%
C=CCS(=O)(=O)N1CCC(CCOc2ccccc2)(C(=O)OCC)CC1
- VDR inh = 19%
Cc1ccc(Cc2cnc(NC(=O)/C(C#N)=C/c3ccc(-c4ccc([N+](=O)[O-])cc4)o3)s2)cc1
- VDR inh = 20%
O=C1C=C(O)C(n2cncn2)C(c2cc(F)ccc2F)C1 (stereo not given)
- VDR inh = -11%

O=[N+]([O-])c1ccccc1CSc1ccccn1
- VDR inh = -1%
O=C(N/N=C/C1CC=CCC1)c1ccccc1O (stereo not given)
- VDR inh = 1%
CN1CCCC(OC(=O)COc2ccc(Br)cc2)C1 (stereo not given)
- VDR inh = 13%
CCOC(=O)CSc1nnc(CNC(=O)c2cc(OCC)c(OCC)c(OCC)c2)n1C
- VDR inh = 19%
Cc1ccc(N2C(=O)CCC2(C#N)c2ccccc2)cc1 (stereo not given)
- VDR inh = -13%
CC(C)C(NC(=S)NCc1ccccc1)C(=O)O (stereo not given)
- VDR inh = -8%
CS(=O)(=O)Nc1ccc(C2=NN(S(C)(=O)=O)C(c3ccc4c(c3)OCO4)C2)cc1 (stereo not given)
- VDR inh = 3%
O=C1OC(/C=C/c2ccc(Cl)cc2Cl)=NC/1=C\c1cccs1
- VDR inh = -2%
O=S(=O)(NCc1nc2cccnc2n1Cc1ccccc1Cl)c1ccc(F)c(Cl)c1
- VDR inh = 0%
COc1ccc(NC(=O)c2oc3ccccc3c2NC(=O)c2ccco2)c(OC)c1
- VDR inh = -4%
CC(C)CCNC(=O)CN(C(=O)CCC(=O)Nc1nccs1)C1CCCCC1
- VDR inh = 1%
CCc1nnc(NC(=O)CSc2nc(SC)ns2)s1
- VDR inh = 3%
CC(=O)NCCc1c[nH]c2ccc(OCC(O)CNC(C)(C)C)cc12 (stereo not given)
- VDR inh = 1%
COc1ccc(CC(=O)Nc2sc3c(c2C(=O)Nc2cccc(Cl)c2)CCCCC3)cc1
- VDR inh = -12%
COc1ccc(N(C(=O)Cn2nnc3ccccc32)C(C(=O)NCc2ccccc2)c2ccc(F)cc2)cc1 (stereo not given)
- VDR inh = -6%

O=C(NNC(=O)c1ccc(S(=O)(=O)N2CCCCC2)cc1)c1ccc(F)cc1
- VDR inh = 17%
CCOC(=O)C(=O)NNc1ccc(C)cc1
- VDR inh = -9%
Cc1ccccc1C(=O)N1CCC(C(=O)Nc2ccc(S(=O)(=O)N3C(C)CCCC3C)cc2)CC1 (stereo not given)
- VDR inh = 0%
COc1ccc(-c2csc(NCCn3c(C)nc4cc(C(F)(F)F)ccc43)n2)cc1
- VDR inh = -11%
O=C(NNS(=O)(=O)c1ccc(F)cc1)c1cnn(-c2ccccc2)c1C(F)(F)F
- VDR inh = -2%
COc1ccc(N2CCN(C(=S)Nc3ccc(S(N)(=O)=O)cc3)CC2)cc1
- VDR inh = ?
CC1=C(C(=O)OC(C)C)C(c2ccc(C)o2)NC(=O)N1 (stereo not given)
- VDR inh = 12%
C#Cc1ccc([C@@H]2C=C(C(=O)N3CCN(Cc4ccccc4)CC3)O[C@H](OCC)[C@H]2CCCO)cc1
- VDR inh = -15%
COc1ccccc1N1CCNC(C)C1=O (stereo not given)
- VDR inh = 79µM*
O=C(Nc1ccc(Br)cc1F)C(NS(=O)(=O)c1cccc2nsnc12)c1ccccc1 (stereo not given)
- VDR inh = -19%
